SARS PLpro yeast = inhibitors of SARS-CoV papain-like protease in yeast | Potency, µM (highest dose often 32.9 µM), without a hit: at the highest dose activity, positive = growth rescue | 0.19% of 330,000 active | S. cerevisiae expressing SARS-CoV PLpro, growth rescue; control for the full effect not named in the record; active means well fitted rising curve with a large enough effect; inconclusive means small, poorly fitted or top-dose-only effect; inactive means no such curve, though single readings can be large or run the other way; further: 0% is about no effect; nearly all actives have a fitted effect of over 55% in size; growth read by luminescence after 48 h
2A StopGo = FMDV 2A StopGo reporter, luciferase signal; human cells with a luciferase reporter of 2A StopGo recoding; control for the full effect not named in the record; AID 1159524; 1.2% of 410,000 active; Potency, µM (top dose mostly 57.9 µM), without a hit: at the top dose signal change, negative = less light; active = well fitted falling curve with a large enough effect; inconclusive = small, poorly fitted or top-dose-only effect; inactive = no such curve, though single readings can be large or run the other way; tested in HEK293T cells; further: on the % scale 0 is the no-effect control and ±100 the full control effect; nearly all actives have a fitted effect of over 45% in size; luciferase light after 4 h
Marburg entry inh = Marburg virus entry inhibition | Marburg virus pseudotyped entry inhibition, cell reporter; control for the full effect not named in the record; about a third of the inactives were read at about 46 µM | Potency, µM (titrated, usually from 37.8 µM), inactives show at the top dose activity change, negative = inhibition, most hits filed as inhibitors | 1.8% of 300,000 active; active = well fitted inhibition curve with a large enough effect; inconclusive = small, poorly fitted or top-dose-only effect, or effect the other way; inactive = flat fitted curve, though single readings scatter; tested in HEK293 cells; about a fifth of its hits are not listed in these tables; further: on the % scale 0 is the no-effect control and ±100 the full control effect; luciferase read-out
RE007 growth inh = less growth of the S. pombe RE007 Vpr strain | Potency, µM (doses to about 92.2 µM), without a hit: at the top dose activity change, negative = less growth | 0.21% of 360,000 active | S. pombe RE007 Vpr strain, BacTiter-Glo ATP luminescence, 24 h; control for the full effect not named in the record; active = well fitted falling curve with a large enough effect; inconclusive = small, poorly fitted or top-dose-only effect; inactive = no such curve, though single readings can be large or run the other way;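 further: on the % scale 0 is the no-effect control and ±100 the full control effect; nearly all actives have a fitted effect of over 50% in size; the assay follows cell death caused by Vpr and the record does not say whether a fall means rescue or toxicity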
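Fission yeast strain RE007, carrying one chromosomally integrated HIV-1 vpr copy, was seeded at OD 0.01 in PMG+AL medium with 23 nL pinned compound. After 24 h at 30 °C and 99% humidity, viability was read by BacTiter-Glo luminescence.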
Lassa entry inh = blocks Lassa virus binding to or entry into cells. AID 540256. Potency, µM (titrated, usually from 37.9 µM), without a hit: top-dose activity change, negative = inhibition, usual class: inhibitors. Lassa virus pseudotype entry inhibition, cell reporter; control for the full effect not named in the record. 1.2% of 300,000 active; active means well fitted inhibition curve with a large enough effect; inconclusive means small, poorly fitted or top-dose-only effect, or effect the other way; inactive means flat fitted curve, though single readings scatter; tested in HEK293 cells; further: on the % scale 0 is the no-effect control and ±100 the full control effect; nearly all actives have a fitted effect of over 50% in size; luciferase read-out
NS1 inh = blocks influenza NS1 protein function | S. cerevisiae slowed by influenza A NS1, growth recovery by OD600 | Potency, µM (series often up to 46.1 µM), without a hit: at the highest dose activity, positive = more growth | 0.4% of 270,000 active; active means well fitted rising curve with a large enough effect; inconclusive means small, poorly fitted or top-dose-only effect; inactive means no such curve, though single readings can be large or run the other way; further: nearly all actives have a fitted effect of over 50% in size
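S. cerevisiae expressing influenza A NS1, grown in glucose, washed, then diluted 1:100 into pH 6.0 -URA galactose medium with 23 nl compound. Growth recovery read as OD600; NS1-free strain serves as control.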
Cruzain inh noDet = inhibitors of Trypanosoma cruzi cruzain without detergent | P25779 | purified cruzain, Z-FR-AMC fluorescence, no detergent | Potency, µM, inactives show max response, negative = inhibition, most hits filed as inhibitors | 2.3% of 200,000 active;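 further: plate controls were enzyme without inhibitor for no effect and buffer without enzyme for full effect; nearly all actives have a fitted effect of over 40% in size; top concentration of the series not given in the record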
Target sequence (P25779 123-467 limits assumed): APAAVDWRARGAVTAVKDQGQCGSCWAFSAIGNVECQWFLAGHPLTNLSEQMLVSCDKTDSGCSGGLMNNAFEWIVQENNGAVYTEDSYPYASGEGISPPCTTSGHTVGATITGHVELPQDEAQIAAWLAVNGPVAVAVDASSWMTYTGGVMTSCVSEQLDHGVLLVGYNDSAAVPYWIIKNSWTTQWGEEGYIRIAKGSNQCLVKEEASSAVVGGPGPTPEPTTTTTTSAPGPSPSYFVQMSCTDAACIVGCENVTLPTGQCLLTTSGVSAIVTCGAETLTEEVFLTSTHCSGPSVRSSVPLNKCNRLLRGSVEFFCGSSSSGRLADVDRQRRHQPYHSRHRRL
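Purified cruzain at 1.5 nM, pre-incubated 15 min with compound at room temperature in 100 mM sodium acetate pH 5.5, 5 mM DTT, 0.00005% Triton X-100. Reaction started with 2 uM Z-FR-AMC; AMC fluorescence increase over 60 s gives rate.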
Cruzain Triton = blocks cruzain activity in presence of Triton detergent | P25779 | Potency, µM, without a hit: max response, negative = inhibition, usual class: inhibitors | 0.43% of 200,000 active | purified cruzain, Z-FR-AMC fluorescence, 0.01% Triton;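 further: plate controls were neutral wells for no effect and buffer without enzyme for full effect; nearly all actives have a fitted effect of over 40% in size; top concentration of the series not given in the record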
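Enzyme 1.5 nM, Z-FR-AMC 2 uM, NaOAc 100 mM pH 5.5, DTT 5 mM, Triton X-100 0.01%; 15 min RT compound preincubation; kinetic ex360/em450, 60 s delta.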
Active calls of the source: *; u = inconclusive; x = no result given; [ ] = dose if it differs, or a comment. Unless noted, the call rests on the fitted dose curve; in most records, active means well fitted curve in the direction sought with a large enough effect; inconclusive means small, poorly fitted or top-dose-only effect, or another doubt; inactive means no such curve, though single readings can be large; an effect the other way counts as inactive or inconclusive. Potency means the concentration at half of the fitted maximal effect.

The line under a structure holds: SARS PLpro yeast, 2A StopGo, Marburg entry inh, RE007 growth inh, Lassa entry inh, NS1 inh, Cruzain inh noDet, Cruzain Triton
> O=[N+]([O-])c1cccc(-c2nc(-c3ccccc3)c(-c3cccs3)[nH]2)c1
→ -1%, -28%, -7%, 15%, -3%, 13%, u, 0.0%
> CCC(=O)Nc1ccc2nc(SCC(=O)N3CCc4ccccc43)sc2c1
→ x, -20%, u, x, 8%[46.1 µM], x, 27%, -4.7%
> O=C(CCS(=O)(=O)c1cc2c3c(c1)CCN3C(=O)CC2)Nc1cccc(Br)c1
→ x, 4%, x, x, 19%[46.1 µM], x, 1%, -10%
> Cc1c(C#N)c(N=CN(C)C)c(C(=O)c2ccccc2)n1-c1ccc(Br)cc1
→ 6%, u, 12%, 10%, -2%, -7%, u, 0.0%
> Cc1cc(C)cc(C(=O)NN2CCN(C)CC2)c1
→ 0%, -5%, 34%[46.1 µM], 4%, 21%, 4%, x, x
> COc1ccc(Cl)cc1NC(=O)/C=C\C(=O)O
→ -2%, 13%, 2%, -18%, 1%, 2%, -3%, 2.5%
> COc1ccccc1N1CCN(C(=O)c2ccc(CS(=O)c3ccccc3C)o2)CC1 (centres undefined)
→ x, u, u, x, u, x, -6%, -3.4%
> COc1ccc(S(=O)(=O)N(CC(=O)O)c2ccccn2)cc1
→ 7%, 10%, u, 21%, 10%, -3%, -5%, 2.4%
> COc1ccc(OC)c(CNS(=O)(=O)c2c(C(=O)N3CCC(C)CC3)c(C)n(C)c2C)c1
→ x, 14%, x, x, 13%[46.1 µM], x, -5%, 0.1%
> O=C(NCc1ccccn1)c1ccc(OC2CCN(Cc3ccccc3)CC2)cc1
→ -6%, -1%, -25%, 2%, -22%, -11%, x, x
> COc1ccc(CCN(Cc2nc(-c3ccccc3)no2)Cc2nc(-c3ccccc3)no2)cc1OC
→ 1%, -18%, -1%, 1%, 0%, 3%, u, -1.7%
> O=C(c1ccc(C#CC2(O)CCCCC2)cc1)N1CCOCC1
→ -1%, 7%, u, -1%, -22%, -1%, 1%, 4.6%
> O=C(CSCc1ccc(Cl)cc1)Nc1nccs1
→ -10%, x, 11%, -4%, 10%, -10%, 10%, -0.1%
> CCn1cc(Br)c(C(=O)Nc2ccc(C(=O)OC(C)C)cc2)n1
→ -8%, 21%, 3%, -5%, x, -11%, 0%, -7.1%
> Cc1cc(Cl)ccc1OCC(=O)NC1CCCC1
→ -8%, x, u, -2%, -6%, -81%, -1%, -2.2%
> CC(=O)N1c2ccc(S(=O)(=O)N(C)CC(=O)N(Cc3ccccc3)C(C)C)cc2CC1C (centres undefined)
→ x, -8%, x, x, -27%[46.1 µM], x, u, 0.1%
> COc1ccc(-c2cc(C(F)(F)F)nc(SCC(=O)NCc3ccc(OC)c(OC)c3)n2)cc1
→ x, -20%, 4%[46.1 µM], x, 12%[46.1 µM], x, -2%, -4.1%
> COC(=O)c1ccccc1NC(=O)c1cc2c(-c3ccc(OC)c(OC)c3)nn(C)c2s1
→ x, -20%, 12%[46.1 µM], x, 12%[46.1 µM], x, -5%, -2.1%
> O=C1/C(=C/c2ccncc2)N=C2CCCCCN12
→ 4%, 3%, x, 0%, x, 10%, x, x
> O=C(NCCc1ccc(Cl)cc1)Nc1cccc(Cl)c1
→ -16%, -7%, u, 15%, u, -46%, -11%, -5.0%

Part of the list above in order of length of the SMILES, low to high:
The line under a structure holds: SARS PLpro yeast, 2A StopGo, Marburg entry inh, RE007 growth inh, Lassa entry inh, NS1 inh, Cruzain inh noDet, Cruzain Triton
> O=C(c1ccc(C#CC2(O)CCCCC2)cc1)N1CCOCC1
→ -1%, 7%, u, -1%, -22%, -1%, 1%, 4.6%
> O=[N+]([O-])c1cccc(-c2nc(-c3ccccc3)c(-c3cccs3)[nH]2)c1
→ -1%, -28%, -7%, 15%, -3%, 13%, u, 0.0%
> COc1ccc(CCN(Cc2nc(-c3ccccc3)no2)Cc2nc(-c3ccccc3)no2)cc1OC
→ 1%, -18%, -1%, 1%, 0%, 3%, u, -1.7%

The list continues.
The line under a structure holds: SARS PLpro yeast, 2A StopGo, Marburg entry inh, RE007 growth inh, Lassa entry inh, NS1 inh, Cruzain inh noDet, Cruzain Triton
> Cc1ccc(C)c(NC(=S)NNC(=O)c2csc(C)c2)c1
→ 0%, 1%, -8%, u, 6%, -11%, 8%, 1.6%
> COc1ccc(C(=O)NCC(=O)NCC(=O)OCc2ccc(Br)cc2)cc1
→ 0%, 0%, 9%[46.1 µM], -9%, -2%[46.1 µM], 1%, x, x
> CC(=O)N1c2ccc(S(=O)(=O)NCCC(=O)NCCc3cccc(C)c3)cc2CC1C (centres undefined)
→ 23%, 4%, x, 4%, x, 1%, x, x
> Cc1ccc(OCC(=O)OCc2cc(=O)n3nc(C4CCCCC4)sc3n2)cc1
→ x, 0%, x, x, -3%[46.1 µM], x, -7%, 2.4%
> COCCn1c(C)cc(C(=O)COC(=O)c2cccc(O)c2)c1C
→ -4%, 11µM*, x, -21%, x, -4%, x, x
> CCCCOc1ccc(C(=O)NCC2(N3CCN(C)CC3)CCCCC2)cc1
→ x, -4%, u, x, 3%[46.1 µM], x, 3%, 0.3%
> Cc1ccc(-c2csc3ncn(Cc4ccc(C(=O)O)cc4)c(=O)c23)cc1C
→ -1%, -12%, x, 12%, x, 15%, x, x
> O=C(NC(=S)Nc1ccccc1C(=O)O)c1cncc(Br)c1
→ 1%, -2%, 6%, -16%, 14%, 11%, x, x
> CCOC(=O)c1cccc(NC(=O)CSc2nc3ccccc3c(=O)n2CC)c1
→ 1%, 2%, -14%, 21%, 21%[14.3 µM], -4%, -10%, -12%
> COc1ccccc1C(=O)CSc1nccn1C
→ 0%, 30%[activator], 5%[46.1 µM], -10%, 0%, 9%, x, x
> Cc1cccc(C)c1OCC(=O)N1CCC(c2nc3ccccc3o2)CC1
→ x, -17%, 4%[46.1 µM], x, 21%[46.1 µM], x, -8%, -4.7%
> Cc1ccc(S(=O)(=O)NCC(Nc2cccc(Cl)c2)c2ccccc2)cc1 (centres undefined)
→ x, -1%, u, x, u, x, -27%, -5.9%
> O=C(Nc1cnc2ccccc2c1)c1cccc(-n2cnnn2)c1
→ 0%, 35%[activator], 12%, 3%, u, u, -21%, -3.4%
> Cc1ccc(-c2csc(NC(=O)Cc3cccs3)n2)cc1C
→ -4%, 16%, -9%, 17%, 16µM*, 11%, -13%, -5.7%
> O=C(NC1CCCCCC1)C1c2ccccc2C(=O)N1CCCN1CCOCC1 (centres undefined)
→ -9%, -9%, 24%, -2%, -5%, -2%, -3%, -1.9%
> CCCCN(C(=O)C1=COCCO1)c1c(N)n(CCC)c(=O)[nH]c1=O
→ -2%, -14%, 16%, -22%, -4%, x, x, x
> C/C(=N/NS(=O)(=O)c1ccc(C)cc1C)c1ccc2c(c1)OCO2
→ -2%, 43%[activator], 2%[46.1 µM], 9%, 1%[46.1 µM], -9%, x, x
> Cc1ccc(NC(=S)NNC(=O)c2nnn(-c3ccccc3)c2C)cc1
→ 17%, 19%, 5%, -11%, 14%, 26%, -13%, -0.8%
> CCC(=O)c1ccc(OCc2ccccc2)c(OC)c1
→ -13%, 73%[activator], u, 5%, u, -1%, -5%, -3.0%
> Cc1ccc2c(c1)/C(=C/c1ccc(F)cc1)C(=O)N2
→ -9%, u, x, -24%, x, -41%, x, x

(more compounds)
The line under a structure holds: SARS PLpro yeast, 2A StopGo, Marburg entry inh, RE007 growth inh, Lassa entry inh, NS1 inh, Cruzain inh noDet, Cruzain Triton
> CCOC(=O)c1c(N)sc(C(O)(C(F)(F)F)C(F)(F)F)c1-c1ccc(F)cc1
→ -30%, u, 2%, u, -3%, -171%, -3%, -9.5%
> Cc1cccc(-n2cc(C#N)c(=O)[nH]c2=O)n1
→ -3%, 2%, u, -5%, -15%, -5%, -5%, -2.9%
> CC1=C(C(N)=O)C(c2cccc(Br)c2)n2nc(SCc3ccccc3)nc2N1 (centres undefined)
→ x, -4%, -14%[46.1 µM], x, -8%[46.1 µM], x, u, -0.2%
> Cc1ccccc1-n1ccnc1SCC(=O)NCC1CCCO1 (centres undefined)
→ 4%, -6%, x, -6%, x, -4%, x, x
> COc1ccc(OCC(=O)Nc2nnc(C)s2)cc1
→ -1%, 16%, u, 23%, -20%, -13%, -9%, 3.2%
> COc1ccc(C(=O)Nc2ccc(C(=O)NCC3CCCO3)cc2)c(OC)c1OC (centres undefined)
→ -2%, -14%, 9%, -5%, 23%, -8%, x, x
> Cc1cc(Nc2ccc(O)cc2)n2c(nc3ccccc32)c1C#N
→ 2%, -6%, -9%[46.1 µM], 12%, 1%[46.1 µM], 6%, x, x
> O=C(NCc1ccc2c(c1)OCO2)C1CCCN(S(=O)(=O)c2cccs2)C1 (centres undefined)
→ 2%, -4%, x, 1%, x, -4%, -2%, -1.6%
> Cc1cnn(C(=O)c2oc3ccccc3c2C)c1
→ -2%, -10%, 18%, -8%, 3%, -39%, -7%, 0.2%
> CC1CN(C)CCC1OC(=O)c1ccccc1 (centres undefined)
→ 1%, -16%, x, -12%, x, 12%, x, x
> O=C(Nc1cccc(Cl)c1)N(Cc1nc2ccccc2c(=O)[nH]1)Cc1cccs1
→ 19%, u, -13%, -2%, -16%, -1%, -3%, -6.0%
> COc1ccc(NC(=O)c2sc3nc(Cc4ccccc4)cc(C(F)(F)F)c3c2N)cc1OC
→ 10%, -12%, 0%, 5%, 11%, -10%, u, -4.7%
> Cn1c(SC2CCCCC2=O)nnc1-c1ccccc1F (centres undefined)
→ 0%, 43%[activator], 15%[14.2 µM], 13%, 5%, x, x, x
> O=C(CCC1CCCN(C(=O)c2ccoc2)C1)NCc1ccccc1F (centres undefined)
→ 0%, -3%, 8%[46.1 µM], 6%, -23%[46.1 µM], 0%, x, x
> Cc1ccc(C(=O)OCC(=O)NCc2ccco2)cc1
→ -3%, 15%, 6%, -7%, 16%, -6%, 0%, 2.9%
> O=C(CCCSc1nc2ccccc2[nH]1)Nc1ccccc1
→ 0%, u, u, 13%, -16%, 0%, 3%, -7.1%

Assay outcomes (PubChem BioAssay)
